Assay outcomes as filed in PubChem BioAssay.
SARS PLpro yeast: SARS-CoV PLP inhibition in yeast. Potency, µM (doses to about 32.9 µM), without a hit: at the highest dose activity, positive = growth rescue. 330,000 compounds, 0.19% hits. S. cerevisiae expressing SARS-CoV PLpro, growth rescue; control for the full effect not named in the record. AID 485353; active means well fitted rising curve with a large enough effect; inconclusive means small, poorly fitted or top-dose-only effect; inactive means no such curve, though single readings can be large or run the other way; further: 0% is about no effect; nearly all actives have a fitted effect of over 55% in size; growth read by luminescence after 48 h
Cruzain inh Det: inhibitors of Trypanosoma cruzi cruzain with detergent. P25779. Potency, µM, for inactives: max response, negative = inhibition, most hits filed as inhibitors. purified cruzain, Z-FR-AMC fluorescence, 0.01% Triton. 200,000 compounds, 0.43% hits;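 further: plate controls were neutral wells for no effect and buffer without enzyme for full effect; nearly all actives have a fitted effect of over 40% in size; top concentration of the series not given in the record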
Target sequence (P25779 123-467 limits assumed): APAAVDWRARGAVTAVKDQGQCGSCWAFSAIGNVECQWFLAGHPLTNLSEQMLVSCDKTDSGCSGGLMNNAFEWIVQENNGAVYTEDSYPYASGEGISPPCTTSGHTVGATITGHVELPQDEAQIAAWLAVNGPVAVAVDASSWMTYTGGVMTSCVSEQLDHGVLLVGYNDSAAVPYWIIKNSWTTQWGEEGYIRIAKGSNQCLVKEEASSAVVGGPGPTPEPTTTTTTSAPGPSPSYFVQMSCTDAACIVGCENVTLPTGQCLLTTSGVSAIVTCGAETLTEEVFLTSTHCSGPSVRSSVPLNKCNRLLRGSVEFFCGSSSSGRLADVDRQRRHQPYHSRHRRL
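15 min RT preincubation of 1.5 nM cruzain with compound, then 2 uM Z-FR-AMC added; kinetic AMC fluorescence, 60 s delta. Triton X-100 0.01%, pH 5.5.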
2A StopGo: lowers the luciferase signal of an FMDV 2A StopGo reporter | human cells with a luciferase reporter of 2A StopGo recoding; control for the full effect not named in the record | Potency, µM (top dose mostly 57.9 µM), inactives show at the highest dose signal change, negative = less light | 410,000 compounds, 1.2% hits; active = well fitted falling curve with a large enough effect; inconclusive = small, poorly fitted or top-dose-only effect; inactive = no such curve, though single readings can be large or run the other way; tested in HEK293T cells; further: on the % scale 0 is the no-effect control and ±100 the full control effect; nearly all actives have a fitted effect of over 45% in size; luciferase light after 4 h
Cruzain noTriton: inhibitors of Trypanosoma cruzi cruzain without detergent. AID 1476. 200,000 compounds, 2.3% hits. P25779. Potency, µM, for inactives: max response, negative = inhibition, hits mostly inhibitors. purified cruzain, Z-FR-AMC fluorescence, no detergent;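 further: plate controls were enzyme without inhibitor for no effect and buffer without enzyme for full effect; nearly all actives have a fitted effect of over 40% in size; top concentration of the series not given in the record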
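Purified cruzain at 1.5 nM, pre-incubated 15 min with compound at room temperature in 100 mM sodium acetate pH 5.5, 5 mM DTT, 0.00005% Triton X-100. Reaction started with 2 uM Z-FR-AMC; AMC fluorescence increase over 60 s gives rate.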
NS1 function inh: blocks influenza NS1 protein function; S. cerevisiae slowed by influenza A NS1, growth recovery by OD600; Potency, µM (doses to about 46.1 µM), without a hit: top-dose activity, positive = more growth; 270,000 compounds, 0.4% hits; active means well fitted rising curve with a large enough effect; inconclusive means small, poorly fitted or top-dose-only effect; inactive means no such curve, though single readings can be large or run the other way; further: nearly all actives have a fitted effect of over 50% in size
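A cell-based growth assay was used: compounds that relieve NS1-induced slow growth of budding yeast raise OD600. Assay medium was yeast nitrogen base with ammonium sulphate and -URA supplement, pH 6.0, with 2% galactose.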
Lassa entry inh: Lassa virus entry inhibition; Lassa virus pseudotype entry inhibition, cell reporter; control for the full effect not named in the record; Potency, µM (doses to about 37.9 µM), without a hit: at the top dose activity change, negative = inhibition, hits mostly inhibitors; 300,000 compounds, 1.2% hits; active means well fitted inhibition curve with a large enough effect; inconclusive means small, poorly fitted or top-dose-only effect, or effect the other way; inactive means flat fitted curve, though single readings scatter; tested in HEK293 cells; further: on the % scale 0 is the no-effect control and ±100 the full control effect; nearly all actives have a fitted effect of over 50% in size; luciferase read-out
MARV entry inh: Marburg virus entry inhibition. Marburg virus pseudotyped entry inhibition, cell reporter; control for the full effect not named in the record; about a third of the inactives were read at about 46 µM. Potency, µM (top dose mostly 37.8 µM), for inactives: at the top dose activity change, negative = inhibition, hits mostly inhibitors. 300,000 compounds, 1.8% hits; active = well fitted inhibition curve with a large enough effect; inconclusive = small, poorly fitted or top-dose-only effect, or effect the other way; inactive = flat fitted curve, though single readings scatter; tested in HEK293 cells; about a fifth of its hits are not listed in these tables; further: on the % scale 0 is the no-effect control and ±100 the full control effect; luciferase read-out
RE007 growth inh: less growth of the S. pombe RE007 Vpr strain; S. pombe RE007 Vpr strain, BacTiter-Glo ATP luminescence, 24 h; control for the full effect not named in the record; Potency, µM (doses to about 92.2 µM), inactives show top-dose activity change, negative = less growth; 360,000 compounds, 0.21% hits; active = well fitted falling curve with a large enough effect; inconclusive = small, poorly fitted or top-dose-only effect; inactive = no such curve, though single readings can be large or run the other way;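 further: on the % scale 0 is the no-effect control and ±100 the full control effect; nearly all actives have a fitted effect of over 50% in size; the assay follows cell death caused by Vpr and the record does not say whether a fall means rescue or toxicity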
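Fission yeast RE007 carrying one integrated HIV-1 vpr copy, seeded at OD 0.01 in PMG+AL medium with 23 nL pinned compound. Grown 24 h at 30 degrees; viability read by BacTiter-Glo luminescence after 5 min.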
* = called active by the depositor; ? = inconclusive; . = no result given; & = joins results of further samples; [ ] = remark or other dose. Unless noted, the call rests on the fitted dose curve; in most records, active means well fitted curve in the direction sought with a large enough effect; inconclusive means small, poorly fitted or top-dose-only effect, or another doubt; inactive means no such curve, though single readings can be large; an effect the other way counts as inactive or inconclusive. Potency means the concentration at half of the fitted maximal effect. Random draw from the library. About 4.5% of those tested had a hit in this group.

structure,SARS PLpro yeast,2A StopGo,MARV entry inh,Lassa entry inh,RE007 growth inh,Cruzain noTriton,NS1 function inh,Cruzain inh Det
O=C(CSc1nc(-c2ccccc2F)nc2nc[nH]c12)Nc1c(Cl)cc(Cl)cc1Cl,-4%,.,-8%,7%,.,6.3µM*,9%,-4.0%
CCCCC(=O)NNC(=S)NC(=O)C(c1ccccc1)c1ccccc1,2%,-23%,?,?,40%,.,.,.
O=C(NCc1ccc(Cl)cc1)c1cc2ccc3cccnc3c2[nH]1,.,17%,.,-2%[46.1 µM],.,25µM*,.,-6.2%
CCCCCCCCCn1cc(C(C)=O)c(=O)[nH]c1=O,4%,-10%,?,-16%,20%,?,-7%,1.9%
CN(C)c1ccc(/C=N/N=C/c2ccccc2O)cc1,2%,-62%,5.6µM*,?,2%,?,-22%,-8.3%
FC(F)(F)c1ccccc1Nc1nccs1,2%,-6%,0%,2%,-7%,-1%,8%,-0.5%
CC1CCN(S(=O)(=O)c2ccc(NC(=O)CN3CCCC(C)C3)cc2)CC1 (centres undefined),-4%,1%,?,-1%,21%,3%,-1%,6.8%
Cc1ccc(N2C(=O)c3ccccc3C2Nc2cccnc2)nc1 (centres undefined),-15%,3%,0%,3%,-14%,-2%,1%,-0.7%
CCOC(=O)C1=NNC2(CC(=O)N(c3cccc(C)c3)C2=O)C1 (centres undefined),0%,-8%,.,.,2%,.,3%,.
O=C(c1ccc(S(=O)(=O)NCC2CCCO2)cc1)N1CCc2ccccc21 (centres undefined),1%,0%,-29%,-29%,23%,-2%,5%,1.9%
COc1cccc(/C=N/n2c(C3CCCCC3)n[nH]c2=S)c1,3%,-5%,.,.,2%,.,2%,.
CCCc1nnc(SCCSc2nnc(CCC)n2N)n1N,4%,2%,-2%,13%,1%,7%,3%,3.8%
Cc1ccc(NC(=O)COC(=O)[C@@H]2CCCN2C(=O)c2cccs2)cc1S(=O)(=O)N(C)C,6%,15%,12%,22%,-1%,.,5%,.
CC(Sc1nc(-c2ccccc2)c(C#N)c(=O)[nH]1)C(=O)Nc1ccc(F)cc1 (centres undefined),.,-11%,-9%[46.1 µM],6%[46.1 µM],.,-3%,.,-9.3%
CCn1cc(CN2CCC(C(=O)Nc3cccc(-c4cccc(Cl)c4)c3)CC2)c(C)n1,5%,-17%,.,.,2%,.,-2%,.
CCOC(=O)C1CCN(C(=O)c2cccnc2Oc2ccc(Cl)cc2)CC1,-1%,-15%,.,.,10%,.,-2%,.
CCOc1ccc(S(=O)(=O)NCc2csc(C)n2)cc1,-3%,-13%,2%,3%,4%,-13%,8%,2.9%
Cc1cc(C)cc(Oc2ccccc2/C=C\C(=O)O)c1,-9%,-5%,3%[46.1 µM],-8%,12%,2%,5%,-2.7%
COc1ccc(CCNC(=O)c2ccc3c(c2)sc2nc(-c4ccc(C)cc4)cn23)cc1OC,.,-9%,.,3%[46.1 µM],.,0%,.,0.0%
CCCc1cc(=O)[nH]c(SCC(=O)N2CCN(S(=O)(=O)c3ccc4ccccc4c3)CC2)n1,-14%,-12%,1%,-13%,12%,-22%,-7%,-3.6%
Cc1ccc(C)c(N2CCN(S(=O)(=O)c3cn(C)cn3)CC2)c1,2%,-19%,6%[46.1 µM],4%[46.1 µM],-29%,.,8%,.
Clc1ccc(/C=N/Nc2nnc(-c3ncc[nH]3)c3ccccc23)cc1,3%,-9%,-24%,-17%,-10%,-1%,22%,-5.9%
O=C1C2C3C=CC(CC3)C2C(=O)N1c1cccc(Br)c1 (centres undefined),.,2%,8%,1%,-7%,.,16%,.
COCc1cc(C)nc(N2CCOCC2)c1C#N,2%,-5%,.,.,-3%,-13%,-3%,-6.6%
CCCC(C)NC(=O)c1cccc(Oc2ccccc2)c1 (centres undefined),3%,39%[activator],?,?,9%,.,.,.
CCN(CC)S(=O)(=O)c1cccc(C(=O)OCC(=O)NCc2ccccc2OC)c1,-1%,-9%,-1%[46.1 µM],-9%,8%,.,.,.
COc1ccc(CN2CCNC(=O)C2CC(=O)NCCc2nc(C)c(C)s2)c(OC)c1 (centres undefined),0%,2%,4%[46.1 µM],4%,1%,.,3%,.
COc1ccc(CCNC(=O)C2CCN(C(=O)c3ccc(Cl)cc3)CC2)cc1,-5%,1%,?,-18%[46.1 µM],4%,.,-12%,.
COc1ccccc1-c1nnc(SCC(=O)NCc2cccs2)n1N,4%,-4%,10%[46.1 µM],?,7%,.,.,.
O=C1CN=CN=CN1c1ccc(Cl)cc1Cl,-36%,25%,20%,6%,-1%,4%,20%,-3.7%
Cc1ccnc(SCCn2c(N3CC(C)OC(C)C3)nc3c2c(=O)n(C)c(=O)n3C)n1 (centres undefined),4%,-15%,4%[46.1 µM],?,-10%,.,.,.
C/C(=N\NC(=O)c1c(Cl)cnn1C)c1ccc(NC(=O)c2ccc(Br)o2)cc1,?,-26%,-3%[46.1 µM],-16%[46.1 µM],-14%,.,-6%,.
O=C(Nc1ccc2c(c1)CCC2)c1ncoc1-c1ccccc1F,1%,14%,3%[46.1 µM],-7%[46.1 µM],?,.,2%,.
Cc1ccc(-c2cc3ccccc3nc2N)cc1,-1%,8%,.,.,-26%,.,-4%,.
Cc1c(OCC(=O)N2CCC(C(N)=O)CC2)ccc2c3c(c(=O)oc12)CCCC3,-5%,5%,.,.,-1%,.,5%,.
Cc1ccc(SCc2c(-c3ccccc3)nn(C)c2Cl)cc1,-19%,?,-8%,?,15%,-5%,-10%,-4.0%
COc1ccc(OCCCCn2c(C3CC(=O)N(c4cccc(Cl)c4)C3)nc3ccccc32)cc1 (centres undefined),.,?,-28%[46.1 µM],?,.,-9%,.,-3.6%
COC(=O)c1ccc(CSc2nnc(NCc3ccccc3)s2)o1,-1%,16%,12%,1%,11%,-7%,14µM*,1.9%
CN(Cc1nc(CC2CC2)no1)CC12CC3CC(CC(C3)C1)C2,-2%,6%,?,-4%,3%,.,-1%,.
COCCN(C(=O)CSc1nnc(C)n1-c1ccc(C)cc1)c1c(N)n(Cc2ccccc2)c(=O)[nH]c1=O,.,-13%,5%,8%,-10%,.,.,.
O=C1NC(=Nc2cccc(O)c2)S/C1=C\c1cccnc1,0%,20%,?,?,5%,.,10%,.
Cc1cccc(N2CCN(S(=O)(=O)c3ccc4c(c3)NC(=O)C(C)S4)CC2)c1C (centres undefined),-14%,-22%,.,.,4%,.,18%,.
Cc1ccc(NC(=O)CN2CCOCC2)cc1,2%,31%[activator],8%,24%,2%,.,1%,.
N#Cc1nc(COc2ccccc2Cl)oc1NCCc1ccccc1,.,-20%,?,-2%[46.1 µM],.,-13%,.,-14%
O=C(NC1CCCCC1)c1ccc2c(c1)N(Cc1ccc(Cl)cc1)C(=O)c1ccccc1S2(=O)=O,.,-8%,?,7%[46.1 µM],.,?,.,-0.8%
N#CCCn1cc(C=C(C#N)C#N)c(-c2ccc(Cl)cc2)n1,-1%,?,?,4%[46.1 µM],-22%,.,6%,.
COc1ccc(S(=O)(=O)N(CC(=O)Nc2cccnc2)c2ccc(Cl)cc2)cc1,.,-6%,-6%[46.1 µM],?,.,-3%,.,-5.5%
Cc1cc(C)cc(N(CC(=O)N2CCCC2)S(C)(=O)=O)c1,-6%,-10%,9%,?,2%,.,-3%,.
CCCC(=O)N=C1SC2CS(=O)(=O)CC2N1c1ccc(CC)cc1 (centres undefined),-3%,-17%,4%,-1%,11%,0%,-5%,1.7%
CC(C)Cn1c(=O)n(C)c(=O)c2[nH]cnc21,1%,-8%&-11%&-7%&-9%,?,?,-1%[18.4 µM],-8%&3%&-5%,8%&5%,3.9%&3.8%&4.8%
COCCNC(=O)c1ccc(C2SCC(=O)N2Cc2ccco2)cc1 (centres undefined),0%,-5%,.,.,-5%,.,4%,.
O=C(Nc1ccc2[nH]ncc2c1)C1CCC1,3%,12%,-2%,?,-5%,.,-1%,.
COc1cccc2c1cc1c(=O)n(CC(=O)N3CCN(c4ccccc4F)CC3)nc(C)n12,.,0%,11%[46.1 µM],.,.,5%,.,-2.4%
CCN(CC)C(=O)Oc1cc(COC)nc(-c2ccccc2)n1,1%,-2%,-15%,6%,-6%,.,-11%,.
COc1ccccc1CCNC(=O)C1CCC(=O)N(C2CC2)C1 (centres undefined),16%,-2%,.,.,-14%,.,-2%,.
CC(=O)c1cccc(N(C(=O)c2ccccn2)C(C(=O)NC2CCCCC2)c2ccccc2)c1 (centres undefined),0%,13%,-19%[46.1 µM],-21%,6%,.,0%,.

Next part
structure,SARS PLpro yeast,2A StopGo,MARV entry inh,Lassa entry inh,RE007 growth inh,Cruzain noTriton,NS1 function inh,Cruzain inh Det
Cc1nnc2n(C3CCCCC3)c(=O)c3c4c(sc3n12)COC(C)(C)C4,4%,2%,-17%,-10%,-1%,14%,10%,5.8%
O=C(COc1ccc(Cl)cc1Cl)Nc1cccnc1,-7%,-5%,?,-29%[46.1 µM],4%,.,.,.
COc1ccc(Cl)cc1N=C1NC(=O)CC(C(=O)Nc2ccccc2C(F)(F)F)S1 (centres undefined),.,-18%,?,1%[46.1 µM],.,?,.,-5.1%
Cc1ccc2c(c1)N(C(=O)CCC(=O)N1CCC3(CC1)OCCO3)CCO2,-4%,10%,.,.,-9%,.,-5%,.
O=C(NC(=S)NNC(=O)c1cccs1)c1ccco1,-16%,11%,16%,-12%,-1%,-8%,-122%,2.5%
O=C(Cn1cnc2ccccc2c1=O)NCc1ccc2c(c1)OCO2,-4%,24%,4%,2%,-3%,-1%,13%,-0.6%
CCOc1ccc2nc(N3CCC(C(=O)N4CCC5(CC4)OCCO5)CC3)sc2c1,2%,22%,?,-2%,1%,?,-53%,-4.3%
Cc1cc2c(OCC(O)CNC3CCCCC3)cccc2[nH]1 (centres undefined),3%,-14%,?,12%[46.1 µM],-16%,.,.,.
Cc1cccc(Oc2ncnc(N)c2[N+](=O)[O-])c1,11%,0%,?,-9%,5%,1%,-5%,-0.2%
Cc1ccc(N2C(=O)NC(=O)/C(=C\C=C\c3ccco3)C2=O)cc1,-4%,20µM*,.,.,15%,.,10%,.
COc1ccc(-c2nsc3c(N4CCCC4)ncnc23)cc1,3%,?,?,?,-11%,-23%,-13%,2.0%
